Assay outcomes (PubChem)
PrP UTR inh: inhibition of PrP 5' UTR reporter expression; cell-based PrP 5' UTR mRNA reporter, plate reader; inhibition, % (test concentration not listed); hit rate 0.35% among 340,000; AID 488862, 2010;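 active = every replicate at 50% or more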;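 note: 0 = median of the neutral control wells; tested in H4 reporter cells; numbers are from one replicate; inactives centre near -14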
RN4220 kill: growth inhibition of S. aureus RN4220, primary screen, OD600 | 16 h | inhibition, % (no concentration beside the values) | hit rate 0.33% among 330,000 | AID 1259311, 2017;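 active = z-score of -3 or lower and OD600 up to 0.18 on both plates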;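 note: plate controls were untreated cells for no effect and reference antibiotic for full effect; stock transfer was 100 nL into about 80 µL; one replicate is shown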
Mtb hypoxia rep: PubChem AID 1159583. hit rate 0.1% among 300,000. M. tuberculosis hypoxia-regulated fluorescent reporter, fluorescence. fluorescence inhibition, % (test concentration not listed);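 active = 35 to 45% if threefold the growth effect, above 45% if 1.5-fold the growth effect; inactive = the rest, general growth blockers included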;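 note: wells of about 50 µL received 100 nL stock; 0% = vehicle wells and 100% = reference inhibitor wells; whole bacteria with a GFP reporter of the hypoxia response; strong numbers were not always called active; many hits fall short of the cut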
Sa ugtP lethal: growth inhibition of ugtP-null S. aureus, primary screen, RN4220 ugtP deletion, OD600; 16 h; some inactives read as strong as hits; hit rate 0.54% among 330,000; AID 1259309, 2017; growth inhibition, % (test concentration not listed);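 active = z-score under -3 and OD600 up to 0.15 on both plates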;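 note: plate controls were untreated wells for no effect and antibiotic for full effect; wells of about 80 µL received 100 nL stock; the first replicate is given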
Autofluor counter: compound fluorescence in toxin protease inhibitor counterscreen. AID 624483. hit rate 3.1% among 360,000. compound autofluorescence counterscreen, microsphere flow cytometry; hits give high values. fluorescence intensity (test concentration not listed);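 active = at least 3 SD above the mean of all compounds, about 16000 in these data; inconclusive = too few beads counted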;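 note: 100 nL of 1 mM stock went into each well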
BJeLR lethal: MLPCN primary cell-based screen for lethality selective to Ras in HRASV12 cells; AID 1554, 2009; BJeLR (HRASV12) viability, CellTiter-Glo ATP luminescence, 48 h; reference of the scale not given here; inhibition, % (test concentration not listed); hit rate 0.17% among 300,000;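 active = replicate mean above 50%; inconclusive = above 50% but judged a plate artefact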;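 note: 50 nL library stock added to about 25 µL; numbers are from one replicate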
Mtb hypoxia rep growth: recorded beside Mtb hypoxia rep, whose call it bears; growth inhibition, %; measured here: M. tuberculosis growth (absorbance);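 0% = vehicle and 100% = reference antibiotic; read after six days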
The depositor's hits bear a star; ? = inconclusive; . = no result given; & = joins results of further samples.

SMILES	PrP UTR inh	RN4220 kill	Mtb hypoxia rep	Mtb hypoxia rep growth	Sa ugtP lethal	Autofluor counter	BJeLR lethal
Nc1nc(SCC(=O)Nc2cc(Cl)c(Cl)cc2Cl)n[nH]1	-15	-0.7	3	6	3	3617	.
Cc1nn(C)c(C)c1S(=O)(=O)N1CCC(CO)(CC2CCCCO2)CC1 (configuration not stated)	-13	-1.2	10	-9	4	5034	0
CS(=O)(=O)c1ccc2c(c1)sc1nc(=O)c(/C=C3/C=CC(=O)C(O)=C3)c(N)n12	-12	7.6	14	11	19	4479	13
COc1ccc(CN(CC(=O)NCc2ccc(F)cc2)C(=O)CCC(=O)Nc2nccs2)cc1	4	-1.1	-7	-15	-1	3817	-8
CCCC(C)NC(=O)c1cc(S(=O)(=O)N2CCCCCC2)ccc1OC (configuration not stated)	-17	1.6	4	8	7	7672	.
Cc1ccc(/C=N/n2nnnc2N)o1	-3	.	.	.	.	5678	-2
O=C(Nc1ccccc1-c1nc2ccccc2s1)c1cccnc1Cl	-4	-3.0	-1	0	-11	5766	-10
O=C(COc1ccc([N+](=O)[O-])cc1)Nc1ccccc1N1CCCC1	3	8.6	5	14	-10	2543	-1
C/C(=N\NC(=O)CSc1nc(C)[nH]c1[N+](=O)[O-])c1ccc(F)cc1	-56	.	.	.	.	3451	-8
CC(=O)c1ccccc1NC(=O)COC(=O)c1c(C)nn(-c2ccccc2)c1C	-24	-1.0	-3	9	-5	3904	.
CN1C(=O)N(c2ccccc2)C(Nc2nncs2)C1(C)C (configuration not stated)	9	0.5	.	.	1	4774	7
COc1cc(C2NC(=O)c3ccccc3O2)ccc1OC(C)C (configuration not stated)	-21	0.2	3	-5	8	3235	-6
CC1(C)OC(C)(C)/C(=C\c2ccc(OCC(N)=O)cc2)C1=O	-12	4.2	0	5	3	3462	.
O=C(COc1cccc2ccccc12)N/N=C/c1ccncc1	-11	.	.	.	.	4291	-1
CCN1CCN(c2cc(N3CCN(C(=O)c4ccco4)CC3)c3c4c(onc24)-c2ccccc2C3=O)CC1	-10	.	.	.	.	2890	9
C/C(=N\NC(=O)c1cc2c(s1)CCC(C)C2)c1ccncc1 (configuration not stated)	-23	.	.	.	.	2096	6
COc1nnc(-c2ccc(N3CCCCC3)c(NC(C)=O)c2)c2ccccc12	-27	6.3	8	19	-5	19145*	-1
Nc1nonc1-n1nnc(C(=O)N/N=C/c2ccncc2)c1-c1ccccc1	-9	.	.	.	.	5215	7
Cc1cc(NC(=O)C2C3C(=O)N(CC4CCCO4)C(C(=O)NC(C)(C)C)C34C=CC2(C)O4)no1 (configuration not stated)	-14	0.0	14	8	2	4318	-1
CC12CCC(=O)N1C(C(=O)Nc1cccc3ccccc13)CS2 (configuration not stated)	-23	6.6	14	10	0	3371	-8
CCOC(=O)C1C(=O)CC(C)(O)C(C(=O)OCC)C1c1ccc(N(CC)CC)cc1 (configuration not stated)	-20	-4.2	-7	0	-2	4638	-2
COc1ccccc1-n1cnc2cc(NCc3cccs3)ccc21	-11	0.6	6	11	15	2305	60*
O=C(CSc1ccc2nnc(-c3ccncc3)n2n1)Nc1ccccc1F	-12	2.5	10	3	8	4707	-10
O=C(Nc1ncn[nH]1)c1ccccc1O	-18	1.7	6	-7	4	4837	6
O=C(CSCC(=O)c1ccccc1)Nc1ccccc1Cl	-12	4.8	.	.	10	4152	-6
OC[C@@H]1CCCN1Cc1nc(-c2cccs2)no1	-24	3.3	13	-2	5	3126	3
CN1C(=O)NC(=O)/C(=C\C=C\c2ccccc2[N+](=O)[O-])C1=O	.	-1.1	1	5	4	.	.
COc1ccc(C(=O)N/N=C/c2sc3ccccc3c2O)cc1	10	.	.	.	.	2396	34
CC(C)CN(C(=O)COC(=O)C12CC3CC(CC(Cl)(C3)C1)C2)c1c(N)n(Cc2ccccc2)c(=O)[nH]c1=O	-27	-2.5	2	-12	4	?	-3
CC(C)=CCC[C@](C)(O)C1CC[C@]2(C)C1C(O)CC1[C@@]3(C)CCC(O)C(C)(C)C3C(OC3OC(CO)C(O)C(O)C3OC3OC(C)C(O)C(O)C3O)C[C@]12C (some centres not stated)	.	1.0	7	12	-5	.	.
COc1ccc(S(=O)(=O)N2CCOc3ccccc32)cc1	-22	6.6	-8	-3	-5	3102	34
COC(=O)c1cc2occc2n1CC(=O)Nc1ccc(OC)c(OC)c1OC	6	2.3	8	2	-1	8041	0
C=C(C)[C@@H]1CC=C(C(=O)O)CC1	-13	.	.	.	.	5929	-2
Cc1c(-n2c(SCC(C)C)nc3ccccc3c2=O)c(=O)n(-c2ccccc2)n1C	-14	-7.5	5	7	20	4269	-13
CCc1cc(=O)oc2cc(C)cc(OCC(=O)N3CCC(C(=O)NC(C)C)(c4ccccc4)CC3)c12	1	-0.3	0	0	3	5463	9
Cc1nc2ccccn2c1C(=O)NN=Cc1ccc2c(c1)OCO2	.	-0.9	3	2	-1	.	.
CCOc1ccc(NS(=O)(=O)c2ccc(NC(=S)NC(=O)CC(C)C)cc2)cc1	-7	-0.4	.	.	87*	2357	4
COc1ccc(NC(=S)NCc2ccc3c(c2)OCO3)cc1	-28	8.5	0	-4	9	4134	-2
O=C(CSc1nnc(NC(=O)C2CCC2)s1)Nc1ccccc1Br	-27	4.4	-12	3	7	6085	-9
CCOC(=O)c1c[nH]c2c(Cl)c(Cl)ccc2c1=O	-24	4.0	6	5	-11	3885	-3
O=C(NCCCc1ccncc1)C1CCC(=O)N(Cc2cccc(F)c2)C1 (configuration not stated)	2	-0.7	-11	-2	4	5822	1
CCOc1ccc(N=Cc2c(C)[nH]n(-c3nc4ccccc4[nH]3)c2=O)cc1	-7	9.3	3	10	-1	2780	65*
COc1ccc(N2CCN(C(=O)COc3cccc4ccccc34)CC2)cc1	-8	3.3	6	-3	4	4689	4
O=C(NCc1ccccc1)c1ccccc1-c1nc2ccccc2[nH]1	-49	-3.3	1	3	11	4127	.
CC(=O)Nc1ccc(Nc2ccc(N3C(=O)CCCC3=O)cc2[N+](=O)[O-])cc1	-12	-4.2	7	7	-5	2438	0
CC(=O)Nc1ccc(Nc2c([N+](=O)[O-])cc(S(C)(=O)=O)cc2[N+](=O)[O-])cc1	-15	.	.	.	.	1934	2
CC(=O)c1ccc(OCc2ccccc2)c(C)c1O	-21	4.7	5	4	-2	3579	8
CCc1cccc2c(C(=O)CN3C(=O)N(C)C4(CCCCC4)C3=O)c[nH]c12	-26	1.7	5	-10	6	3288	.
Cc1c(Cl)cccc1NC(=O)c1ccc(OCC(=O)NCc2ccccc2)cc1	-38	-0.3	19	-1	-2	2017	4
COC(=O)CNC(=O)CSc1nc2sc(-c3ccccc3)cc2c(=O)n1-c1ccccc1	2	-4.6	12	-2	12	4275	3
CC1=Nc2cc(C(=O)NCCN3CCOCC3)ccc2Sc2c(C)ccc(C)c21	-12	1.9	4	7	6	5357	2
COc1ccc(-c2csc(NC(=O)C(CC(=O)O)N3CCOCC3)n2)cc1 (configuration not stated)	-14	.	.	.	.	3428	2
COc1ccc(/C=N/NC(=O)c2ccco2)cc1Cn1nc(C)c([N+](=O)[O-])c1C	-4	.	.	.	.	4650	3
COc1ccc(N2CCN(C(=O)COc3ccccc3)CC2)cc1	.	5.5	.	.	3	.	10
N#Cc1nc(COc2ccc(-c3ccccc3)cc2)oc1NCc1cccnc1	-19	17	23	-25	10	3331	-4
O=C(NCCCn1ccnc1)c1nc(Cn2cc([N+](=O)[O-])cn2)no1	-16	5.0	3	5	10	3919	-11
Cc1ccc(NC(=S)NCCc2ccc(F)cc2)c(C)c1	1	3.8	-4	1	-1	9697	-8
CCN(Cc1cccc(F)c1)C(=O)c1ccc2ccccc2n1	-18	2.1	4	1	2	4842	8
Cc1ccc(N2C(=O)CSC2=S)cc1C	-9	5.9	15	6	10	4559	5
ON=C1CCCc2nnc3c(c21)CCCC3	.	2.6	3	6	-8	.	.

Another view of part of the listing above.
molecule,PrP UTR inh,RN4220 kill,Mtb hypoxia rep,Mtb hypoxia rep growth,Sa ugtP lethal,Autofluor counter,BJeLR lethal
CC(=O)c1ccc(OCc2ccccc2)c(C)c1O,-21,4.7,5,4,-2,3579,8
CCc1cccc2c(C(=O)CN3C(=O)N(C)C4(CCCCC4)C3=O)c[nH]c12,-26,1.7,5,-10,6,3288,.
Cc1c(Cl)cccc1NC(=O)c1ccc(OCC(=O)NCc2ccccc2)cc1,-38,-0.3,19,-1,-2,2017,4

An excerpt of these results, field by field.
COc1ccc(C(=O)N/N=C/c2sc3ccccc3c2O)cc1
  PrP UTR inh: 10 | RN4220 kill: . | Mtb hypoxia rep: . | Mtb hypoxia rep growth: . | Sa ugtP lethal: . | Autofluor counter: 2396 | BJeLR lethal: 34
CC(C)CN(C(=O)COC(=O)C12CC3CC(CC(Cl)(C3)C1)C2)c1c(N)n(Cc2ccccc2)c(=O)[nH]c1=O
  PrP UTR inh: -27 | RN4220 kill: -2.5 | Mtb hypoxia rep: 2 | Mtb hypoxia rep growth: -12 | Sa ugtP lethal: 4 | Autofluor counter: ? | BJeLR lethal: -3

Other records follow.
SMILES	PrP UTR inh	RN4220 kill	Mtb hypoxia rep	Mtb hypoxia rep growth	Sa ugtP lethal	Autofluor counter	BJeLR lethal
O=C(NCC1CCCCC1)C1(CC2CC(c3ccc(Cl)cc3)=NO2)CCNCC1 (configuration not stated)	-36	-2.5	14	25	1	3832	7
COc1ccc(CN2C(=O)C(C)Nc3ncnc(N4CCN(c5ccccc5)CC4)c32)cc1 (configuration not stated)	-10	3.4	-5	7	-12	4898&6353	.
N#CC1=C(N)Oc2cc(O)ccc2C1c1ccccc1 (configuration not stated)	8	6.2	0	0	4	21140*	2
O=C(NC1CCCCC1)C(c1ccccc1)N1CCCC1 (configuration not stated)	2	1.5	.	.	2	4971	4
O=C(O)CC(CC(=O)N1CCN(C(=O)c2ccco2)CC1)c1ccccc1 (configuration not stated)	-12	-1.8	1	-1	-2	6053	11
CCN(CC)S(=O)(=O)c1cc(NC(=O)CN2CCN(c3ccccn3)CC2)ccc1C	-13	3.8	0	14	-1	4289	-6
COc1ccc(N2CCN(S(=O)(=O)c3ccc4c(c3)CCCC4)CC2)c([N+](=O)[O-])c1	-12	-3.9	18	4	5	10038	8
COC(=O)Nc1ccccc1C(=O)N1CCCCC1	-17	1.7	10	4	5	?	-2

5 entries from above, with bars between the fields:
Structure | PrP UTR inh | RN4220 kill | Mtb hypoxia rep | Mtb hypoxia rep growth | Sa ugtP lethal | Autofluor counter | BJeLR lethal
COc1ccc(CN2C(=O)C(C)Nc3ncnc(N4CCN(c5ccccc5)CC4)c32)cc1 (configuration not stated) | -10 | 3.4 | -5 | 7 | -12 | 4898&6353 | .
O=C(O)CC(CC(=O)N1CCN(C(=O)c2ccco2)CC1)c1ccccc1 (configuration not stated) | -12 | -1.8 | 1 | -1 | -2 | 6053 | 11
COc1ccc(N2CCN(S(=O)(=O)c3ccc4c(c3)CCCC4)CC2)c([N+](=O)[O-])c1 | -12 | -3.9 | 18 | 4 | 5 | 10038 | 8
N#CC1=C(N)Oc2cc(O)ccc2C1c1ccccc1 (configuration not stated) | 8 | 6.2 | 0 | 0 | 4 | 21140* | 2
COC(=O)Nc1ccccc1C(=O)N1CCCCC1 | -17 | 1.7 | 10 | 4 | 5 | ? | -2
